Screens from PubChem.
Mtb H37Rv: M. tuberculosis H37Rv growth inhibitors, H37Rv strain (AID 1626); inhibition, % at 10 µM; hits with a dose series show IC50 in µM; M. tuberculosis H37Rv growth inhibition; higher % means a stronger effect; 0.95% of 220,000 active;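 active = confirmed in a dose series; inconclusive = inhibition above 80% but not taken into the dose series; inactive = below 80% or under 30% at every dose of the series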;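 also: bacteria incubated seven days before Alamar blue readout; 0% = bacteria only wells and 100% = bacteria with antibiotic wells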
YopH PTP inh: inhibitors of Yersinia enterocolitica YopH tyrosine phosphatase | fluorescence Ex485/Em525 | inhibition, %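 (about 10 µM by stock and volumes)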 | 0.16% of 140,000 active | AID 898;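 active = inhibition of 50% or more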;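 also: controls were vehicle for no effect and minimum signal wells for full effect; inactives centre near -20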
RecA splice inh: Mtb RecA intein splicing inhibition. P9WHJ3. cell-free RecA intein splicing, fluorescence. inhibition, %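 (about 9 µM by stock and volumes)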. 0.75% of 290,000 active; in the data active = inhibition above about 30%; inconclusive = no clear call, values can overlap the other calls;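 also: 0% = vehicle wells and 100% = reference inhibitor control wells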
Target sequence (P9WHJ3 whole entry, looked up, canonical isoform): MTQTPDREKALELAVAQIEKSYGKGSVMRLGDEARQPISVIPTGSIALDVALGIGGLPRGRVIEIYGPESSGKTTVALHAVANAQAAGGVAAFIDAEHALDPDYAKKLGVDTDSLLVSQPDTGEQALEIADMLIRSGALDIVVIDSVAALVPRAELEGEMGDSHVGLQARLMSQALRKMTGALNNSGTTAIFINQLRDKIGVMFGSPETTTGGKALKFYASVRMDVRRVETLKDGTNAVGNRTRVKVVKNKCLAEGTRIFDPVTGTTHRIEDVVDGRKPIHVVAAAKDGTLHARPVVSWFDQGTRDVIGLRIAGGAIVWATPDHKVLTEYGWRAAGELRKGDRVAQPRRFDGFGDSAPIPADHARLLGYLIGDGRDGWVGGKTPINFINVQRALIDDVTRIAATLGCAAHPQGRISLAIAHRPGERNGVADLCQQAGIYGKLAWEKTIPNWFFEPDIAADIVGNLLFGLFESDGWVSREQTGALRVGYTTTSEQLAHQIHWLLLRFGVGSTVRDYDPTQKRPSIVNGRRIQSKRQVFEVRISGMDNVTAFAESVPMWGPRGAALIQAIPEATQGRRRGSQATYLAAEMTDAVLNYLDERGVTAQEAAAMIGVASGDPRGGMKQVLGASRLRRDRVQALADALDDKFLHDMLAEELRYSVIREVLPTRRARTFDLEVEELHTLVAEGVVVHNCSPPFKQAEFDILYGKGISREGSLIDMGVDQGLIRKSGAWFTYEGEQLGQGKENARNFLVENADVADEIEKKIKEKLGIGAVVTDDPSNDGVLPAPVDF
Arbovirus anti: arbovirus infection inhibition. arbovirus infection cell-based antiviral screen. 0.37% of 200,000 active. inhibition, % at 10 µM;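 active = inhibition from about 30%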;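 also: bluetongue infection of BSR cells; cell survival read as ATP light after 72 h; 0% = infected wells without compound and 100% = uninfected wells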
Mtb betalactam: beta-lactam sensitization of Mtb H37Rv | M. tuberculosis H37Rv growth with meropenem, percent inhibition; hits of this screen are not shown here | inhibition, % at 25 µM | 0.27% of 330,000 active;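 active = about 74% or more and at least 40 points above the plate without the antibiotic, then above 30% in a dose series; inconclusive = first-round hits that could not be retested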;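 also: growth measured after seven days incubation then overnight dye step; 0% = bacteria only wells and 100% = bacteria with antibiotic; twin plates without the antibiotic show which effects depend on it; some results filed as inactive read as strong as hits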
Arbovirus anti repeat: second read-out of Arbovirus anti, no call of its own (marks repeat the call); inhibition, %; measured here: 10K subset replicate screen; many hits read low in the repeat;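 first of two repeat runs on a subset; 0% = infected and 100% = uninfected wells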
The depositor's hits bear a star; u = inconclusive; x = not tested or not shown. Only part of the results is shown; rates above refer to the full screens.

SMILES	Mtb H37Rv	YopH PTP inh	RecA splice inh	Arbovirus anti	Mtb betalactam	others
Cc1ccc(-n2c(-c3ccco3)nc3c(cnn3-c3ccccc3C)c2=O)cc1	-10%	-67	-2.7	-4	2
COc1cccc(/C=C2\NC(=O)NC2=O)c1O	x	x	-4.3	x	14
Cc1ccc(CNS(=O)(=O)c2c(C)[nH]c(C)c2C(=O)N2CCCCC2)o1	x	x	0.2	x	6
CCOc1ccc2nc(NC(=O)CSc3nnc(-c4ccncc4)n3CC3CCCO3)sc2c1 (stereo not drawn)	58%	x	2.6	x	92
C=CCN(CC=C)C(=O)c1ccncc1	-4%	7	2.0	-2	0
Cc1[nH]c2ccccc2c1C(=O)CN1CC=C(c2ccccc2)CC1	25%	-18	-1.6	4	85
COCC1CCN(C(=O)c2cc(COc3cncc(Cl)c3)on2)C1 (stereo not drawn)	x	x	1.9	x	5
CC(=O)c1ccc(NC(=O)C(C)N(C)CC(=O)Nc2ccc(Cl)cc2)cc1 (stereo not drawn)	14%	x	-1.0	-2	-1
CCOC(=O)N1CCC(N2C(=O)c3ccc(C(=O)Nc4ccc(F)cc4F)cc3C2=O)CC1	10%	-31	2.0	2	8	Arbovirus anti repeat=0
CCOC(=O)c1cc(=O)n2c(nc3ccccc32)[nH]1	x	x	-4.3	x	18
CN1CCNC(=O)C1CC(=O)NCC1(c2ccccc2)CCCCC1 (stereo not drawn)	20%	x	-0.6	8	-8
O=C(N/N=C/c1ccncc1)c1ccc(NS(=O)(=O)c2cccs2)cc1	-1%	x	-1.4	4	6
CC(=O)c1sc(NC(=O)COc2c(C)cc(Cl)cc2C)nc1C	-4%	x	3.3	-14	0
CC(C(=O)Nc1ccc(Br)cc1C(=O)c1ccccc1)N1CCOCC1 (stereo not drawn)	2%	-22	-1.5	-2	-3
COc1ccc(-c2csc(NC(=O)CN3C(=O)CCC3=O)n2)cc1OC	-11%	10	0.2	-13	-1
O=C(Cc1ccc(Br)cc1)N1CCN(c2ccccn2)CC1	3%	-2	1.0	-5	6
O=c1c2ccccc2nc(/C=C/c2c[nH]c3ccccc23)n1CCO	16%	x	-1.9	-4	41
COc1ccc(C(C(=O)NCCC(C)C)N(CCCO)C(=O)c2snc(C(N)=O)c2N)cc1OC (stereo not drawn)	x	x	-0.7	x	-3
COc1cc(C(c2c(C(=O)O)[nH]c3ccccc23)c2c(C(=O)O)[nH]c3ccccc23)ccc1OCc1ccccc1	x	x	16	x	-5
Cc1nc(S(=O)(=O)N2CCN(C3c4ccccc4-c4ccccc43)CC2)cn1C	-3%	x	1.4	x	-3

Of the compounds above, 4 have an aryl methoxy group:
SMILES	Mtb H37Rv	YopH PTP inh	RecA splice inh	Arbovirus anti	Mtb betalactam	others
COc1cccc(/C=C2\NC(=O)NC2=O)c1O	x	x	-4.3	x	14
COc1ccc(-c2csc(NC(=O)CN3C(=O)CCC3=O)n2)cc1OC	-11%	10	0.2	-13	-1
COc1ccc(C(C(=O)NCCC(C)C)N(CCCO)C(=O)c2snc(C(N)=O)c2N)cc1OC (stereo not drawn)	x	x	-0.7	x	-3
COc1cc(C(c2c(C(=O)O)[nH]c3ccccc23)c2c(C(=O)O)[nH]c3ccccc23)ccc1OCc1ccccc1	x	x	16	x	-5

The main list resumes, starting five compounds before the break.
SMILES	Mtb H37Rv	YopH PTP inh	RecA splice inh	Arbovirus anti	Mtb betalactam	others
O=C(Cc1ccc(Br)cc1)N1CCN(c2ccccn2)CC1	3%	-2	1.0	-5	6
O=c1c2ccccc2nc(/C=C/c2c[nH]c3ccccc23)n1CCO	16%	x	-1.9	-4	41
COc1ccc(C(C(=O)NCCC(C)C)N(CCCO)C(=O)c2snc(C(N)=O)c2N)cc1OC (stereo not drawn)	x	x	-0.7	x	-3
COc1cc(C(c2c(C(=O)O)[nH]c3ccccc23)c2c(C(=O)O)[nH]c3ccccc23)ccc1OCc1ccccc1	x	x	16	x	-5
Cc1nc(S(=O)(=O)N2CCN(C3c4ccccc4-c4ccccc43)CC2)cn1C	-3%	x	1.4	x	-3
C=CCOc1c2ccc(C(=O)NCc3ccc(OC)cc3)cc2nn1C	-11%	-3	-2.9	8	-13
CN1C(=O)C(C2c3ccccc3C(=O)N2Cc2ccc([N+](=O)[O-])cc2)C(=O)N(C)C1=O (stereo not drawn)	-6%	-8	-3.6	3	-8
O=C(Nc1cccnc1)c1ccc(NS(=O)(=O)c2cccc([N+](=O)[O-])c2)cc1	-5%	x	-1.3	2	-8
COC(=O)C1CSC(C)(C)C(=O)N1 (stereo not drawn)	2%	x	1.3	0	4
COc1cc(S(=O)(=O)N2CCCC3(CCCCC3)C2)ccc1-n1cnnn1	1%	15	2.4	-6	0
COc1ccc(C(=O)CC(=O)C(=O)Nc2cc(OC)ccc2OC)cc1	x	x	1.5	x	0
Cc1cc(C)cc(N2C(=O)NC(=O)/C(=C\c3cccn3-c3ccc(Cl)cc3)C2=O)c1	3%	-28	-3.1	-36	28
CCOC(=O)c1ccc(S(=O)(=O)N2CCN(CC(=O)NC(=O)NC(C)(C)C)CC2)cc1	-8%	0	-0.2	-2	7
CC(=O)NCCc1ccc(S(=O)(=O)Nc2ccc(C)c(S(=O)(=O)N3CCOCC3)c2)cc1	x	x	-2.4	x	0
CN(C)CCOC(=O)C1(c2ccccc2)CCCC1	3%	-6	-1.9	13	-9
COc1ccc(-c2nc(-c3ccc(NC(=O)c4ccncc4)cc3)no2)cc1OC	18%	-11	-4.8	-8	4	Arbovirus anti repeat=1
Cc1nc(Nc2ccccc2)sc1C(=O)Nc1ccccc1	21%	x	2.2	x	11
CCOc1cc(N2CCOCC2)c(OCC)cc1NC(=O)CN1C(=O)NC2(CCc3ccccc32)C1=O (stereo not drawn)	-1%	5	-2.5	12	-12
CCCOc1ccc(/C=N/NC(=O)CN2CCCCC2)cc1OCC	x	x	-1.6	x	-7
Cc1c(NC(=O)CSc2nnc(C(C)Oc3ccc(Cl)cc3)n2-c2ccccc2)c(=O)n(-c2ccccc2)n1C (stereo not drawn)	-11%	-4	5.2	-6	-5
NC(=O)c1cnn2c(C(F)(F)F)cc(-c3ccc(F)cc3)nc12	-7%	-20	6.0	15	-4
CC1CCN(CC(O)COC2CC(C)CC(C)(C)C2)CC1 (stereo not drawn)	x	x	2.7	x	-3
CCc1nc2sc(C#N)c(N)c2c2c1CCCC2	-10%	-12	0.1	6	3
Cc1oc(-c2ccccc2Cl)nc1CN1CCCCC1CO (stereo not drawn)	3%	x	x	-3	5
Cn1cc(Br)c(C(=O)NC2CCCCCC2)n1	x	x	1.3	x	-3
O=C(Oc1ccccc1C(=O)Nc1ccccc1)c1ccc(Br)c([N+](=O)[O-])c1	-6%	-18	9.7	8	6
CCOC(=O)C1Nc2c(F)cc(C)cc2C2c3ccccc3CC12 (stereo not drawn)	-1%	x	45*	x	87
Cn1c(C(=O)N2CCCC(C(=O)O)C2)cc2sccc21 (stereo not drawn)	-3%	-5	-2.4	6	-3
Cc1ccc(C(=O)CSc2nnc(-c3c[nH]c4ccccc34)o2)cc1	2%	-43	1.2	6	-4
Cc1c(C)n(C)c2ccc(C(=O)NCCCN3CCCC3)cc12	x	x	0.9	x	-3
CCn1c(COc2ccc(C)cc2)nnc1SCc1ccc(C#N)cc1	6%	-6	0.7	3	70
CC1(C)Nc2ccccc2C(=O)N1NC(=O)c1ccccc1	0%	x	1.9	-1	3
CCOCC(=O)OCC(=O)NC12CC3CC(CC(C3)C1)C2	0%	x	1.5	4	-7
COc1ccc(OC)c(-c2cnc(OC(C)(C)C)nc2OC(C)(C)C)c1	2%	-20	0.8	-6	-12
COc1ccc(CN(C)S(=O)(=O)c2nnc(NC(=O)c3cccc(OC)c3)s2)cc1	x	x	-2.0	x	0
Cc1ccc(C(C)C)cc1OCC(=O)N/N=C/c1ccc2c(c1)OCCO2	-1%	-24	9.6	-5	-6
Cc1cc(NC(=O)COc2ccc(Cl)cc2Cl)n(CCC#N)n1	5%	-28	1.1	3	5
O=C(CSc1nnc(-c2ccco2)o1)N1CCCCC1	x	x	2.6	x	3
COc1ccccc1Nc1ncnc2ccc(C)cc12	7%	-2	6.2	3	0
Cc1ccc(C(=O)OCC(=O)Nc2ccc3[nH]c(=O)[nH]c3c2)cc1[N+](=O)[O-]	5%	x	-0.2	x	-2
COc1ccc(CNC(=O)CCN2C(=O)c3ccccc3C2=O)cc1OC	x	x	-0.5	x	-6
NC(=S)Nc1ccccc1Br	-1%	x	-1.3	x	-3
O=C(NCc1ccco1)c1ccc(Cn2c(=O)c3sccc3n(Cc3ccc(F)cc3)c2=O)cc1	0%	-23	0.2	-2	-5
O=C(O)CCC(=O)c1ccc2c(c1)OCCCO2	-6%	-35	-0.7	-8	-2
COc1cccc(OC)c1C(=O)Nc1nc(N)n(-c2ccccc2)n1	-2%	-32	1.4	5	0
O=C(O)CCSc1ccccn1	-5%	x	0.7	0	-2
O=C(Nc1cccc(NC(=O)c2ccco2)c1)c1ccc2c(c1)OCO2	-1%	-20	0.3	0	0
CCc1n[nH]c(=S)n1/N=C/c1cccc2ccccc12	x	x	-1.0	x	-2
CCC(Sc1nncn1C)C(=O)Nc1ccccc1OC (stereo not drawn)	1%	-14	0.6	8	1
O=C(CCCn1nnc2ccccc2c1=O)N[C@@H](Cc1ccccc1)C(=O)O	-15%	x	0.2	x	-11
CCC1CCCCN1C(=O)Cn1c(C(=O)OC)cc2sc(Cl)cc21 (stereo not drawn)	0%	35	-3.7	-5	0
COCCN(C(=O)CSc1nnc(-c2ccccc2OC)o1)c1c(N)n(CC(C)C)c(=O)[nH]c1=O	x	x	5.2	x	-4
COc1ccc(CC2(CO)CCN(S(=O)(=O)c3c(C)nn(C)c3Cl)CC2)cc1	9%	x	1.1	11	-1
Cc1c(NC(=O)c2cc(-c3cccs3)nc3ccccc23)c(=O)n(-c2ccccc2)n1C	-2%	-29	-0.4	12	4
O=C(CN1CCN(c2cccc(Cl)c2)CC1)Nc1ccc(S(=O)(=O)N2CCOCC2)cc1	x	x	-1.5	x	u
Cn1c(NCC2CCCO2)nc2c1c(=O)n(Cc1ccccc1)c(=O)n2C (stereo not drawn)	-1%	-60	-0.3	11	1
Cc1cccc(Oc2ccc(N)cc2)c1	>100µM*	-11	1.9	-4	98
O=C(Nc1ccccc1Cl)c1cc(S(=O)(=O)N2CCOCC2)cs1	-3%	-5	-3.3	-1	-1
CCOC(=O)N1CCN(C(=O)CNC(=O)Cn2cnc3ccccc3c2=O)CC1	1%	x	-1.1	1	2
CN(C)c1nc(=Nc2cccc(Cl)c2)ss1	u	x	11	x	18
O=C(O)CN=C1NC2(CCCCC2)Cc2ccccc21	-3%	-77	-5.8	1	5
COCCSc1nnc(NC(=O)CSCc2ccccc2)s1	3%	7	x	5	6
Cc1cc(C(=O)NCC(=O)OCC(=O)NCCc2ccccc2)ccc1[N+](=O)[O-]	-1%	x	-0.7	0	-6
CCn1ncc(CNC(=O)C2(C)CC2(Br)Br)c1C (stereo not drawn)	-1%	-21	0.7	3	2
Cc1cc(NC(=O)CSc2nnc(-c3ccccc3)n2Cc2ccco2)no1	-4%	-104	-1.4	4	5

(continued)
SMILES	Mtb H37Rv	YopH PTP inh	RecA splice inh	Arbovirus anti	Mtb betalactam	others
CC(C)(O)C(=O)NNC(=S)Nc1cccc(C(F)(F)F)c1	36%	x	-3.0	2	1
N#CCCN(C(=O)COC(=O)C1CCN(S(=O)(=O)c2cccs2)CC1)c1ccccc1	3%	x	2.2	2	-2
CC1=NN(c2nc(-c3ccccc3)cs2)C(=O)C1N=Nc1ccccc1 (stereo not drawn)	5%	x	-0.3	-5	11
Cc1nnc(-c2ccccc2)nc1N(C)C	-6%	x	-3.2	-2	-14
COc1ccccc1NC(=S)N=Nc1c(O)[nH]c2ccc(Br)cc12	3%	x	9.9	x	4
CCOc1ccc(N2C(=O)Nc3ccc(Br)cc3C2(O)C(=O)NC(C)C)cc1 (stereo not drawn)	x	x	-0.7	x	7

7 consecutive compounds from above, quoted:
SMILES	Mtb H37Rv	YopH PTP inh	RecA splice inh	Arbovirus anti	Mtb betalactam	others
COCCSc1nnc(NC(=O)CSCc2ccccc2)s1	3%	7	x	5	6
Cc1cc(C(=O)NCC(=O)OCC(=O)NCCc2ccccc2)ccc1[N+](=O)[O-]	-1%	x	-0.7	0	-6
CCn1ncc(CNC(=O)C2(C)CC2(Br)Br)c1C (stereo not drawn)	-1%	-21	0.7	3	2
Cc1cc(NC(=O)CSc2nnc(-c3ccccc3)n2Cc2ccco2)no1	-4%	-104	-1.4	4	5
CC(C)(O)C(=O)NNC(=S)Nc1cccc(C(F)(F)F)c1	36%	x	-3.0	2	1
N#CCCN(C(=O)COC(=O)C1CCN(S(=O)(=O)c2cccs2)CC1)c1ccccc1	3%	x	2.2	2	-2
CC1=NN(c2nc(-c3ccccc3)cs2)C(=O)C1N=Nc1ccccc1 (stereo not drawn)	5%	x	-0.3	-5	11
